LASV entry inh: inhibitors of Lassa virus binding or cell entry | Lassa virus pseudotype entry inhibition, cell reporter; control for the full effect not named in the record | Potency, µM (titrated, usually from 37.9 µM), inactives show at the top dose activity change, negative = inhibition, actives largely listed as inhibitors | 1.2% of 300,000 active; active means well fitted inhibition curve with a large enough effect; inconclusive means small, poorly fitted or top-dose-only effect, or effect the other way; inactive means flat fitted curve, though single readings scatter; tested in HEK293 cells; further: on the % scale 0 is the no-effect control and ±100 the full control effect; nearly all actives have a fitted effect of over 50% in size; luciferase read-out
2A StopGo: FMDV 2A StopGo reporter, luciferase signal; Potency, µM (highest dose often 57.9 µM), without a hit: at the highest dose signal change, negative = less light; human cells with a luciferase reporter of 2A StopGo recoding; control for the full effect not named in the record; 1.2% of 410,000 active; active = well fitted falling curve with a large enough effect; inconclusive = small, poorly fitted or top-dose-only effect; inactive = no such curve, though single readings can be large or run the other way; tested in HEK293T cells; further: on the % scale 0 is the no-effect control and ±100 the full control effect; nearly all actives have a fitted effect of over 45% in size; luciferase light after 4 h
RE007 growth inh: less growth of the S. pombe RE007 Vpr strain | S. pombe RE007 Vpr strain, BacTiter-Glo ATP luminescence, 24 h; control for the full effect not named in the record | Potency, µM (doses to about 92.2 µM), without a hit: top-dose activity change, negative = less growth | 0.21% of 360,000 active; active = well fitted falling curve with a large enough effect; inconclusive = small, poorly fitted or top-dose-only effect; inactive = no such curve, though single readings can be large or run the other way;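 further: on the % scale 0 is the no-effect control and ±100 the full control effect; nearly all actives have a fitted effect of over 50% in size; the assay follows cell death caused by Vpr and the record does not say whether a fall means rescue or toxicity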
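Fission yeast RE007 carrying one integrated HIV-1 vpr copy, seeded at OD 0.01 in PMG+AL medium with 23 nL pinned compound. Grown 24 h at 30 degrees; viability read by BacTiter-Glo luminescence after 5 min.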
Cruzain noTriton: blocks cruzain activity in detergent-free assay; P25779; Potency, µM, inactives show max response, negative = inhibition, usual class: inhibitors; purified cruzain, Z-FR-AMC fluorescence, no detergent; 2.3% of 200,000 active; active means well fitted curve in the direction sought with a large enough effect; inconclusive means small, poorly fitted or top-dose-only effect, or another doubt; inactive means no such curve, though single readings can be large; an effect the other way counts as inactive or inconclusive;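 further: plate controls were enzyme without inhibitor for no effect and buffer without enzyme for full effect; nearly all actives have a fitted effect of over 40% in size; top concentration of the series not given in the record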
Target sequence (P25779 123-467 limits assumed): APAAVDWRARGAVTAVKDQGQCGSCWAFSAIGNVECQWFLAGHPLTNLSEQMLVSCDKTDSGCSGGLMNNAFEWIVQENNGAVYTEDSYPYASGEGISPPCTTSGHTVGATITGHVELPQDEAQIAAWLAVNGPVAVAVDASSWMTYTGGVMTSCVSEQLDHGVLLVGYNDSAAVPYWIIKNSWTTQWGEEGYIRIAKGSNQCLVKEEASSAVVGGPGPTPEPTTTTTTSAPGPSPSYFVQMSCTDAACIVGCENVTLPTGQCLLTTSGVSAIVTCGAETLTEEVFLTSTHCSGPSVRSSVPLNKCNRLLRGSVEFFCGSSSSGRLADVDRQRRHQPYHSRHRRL
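Purified cruzain at 1.5 nM, pre-incubated 15 min with compound at room temperature in 100 mM sodium acetate pH 5.5, 5 mM DTT, 0.00005% Triton X-100. Reaction started with 2 uM Z-FR-AMC; AMC fluorescence increase over 60 s gives rate.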
SARS PLpro yeast: SARS-CoV PLP inhibition in yeast. S. cerevisiae expressing SARS-CoV PLpro, growth rescue; control for the full effect not named in the record. Potency, µM (series often up to 32.9 µM), for inactives: at the top dose activity, positive = growth rescue. 0.19% of 330,000 active. AID 485353; further: 0% is about no effect; nearly all actives have a fitted effect of over 55% in size; growth read by luminescence after 48 h
MARV entry inh: blocks Marburg virus binding to or entry into cells | 1.8% of 300,000 active | Marburg virus pseudotyped entry inhibition, cell reporter; control for the full effect not named in the record; about a third of the inactives were read at about 46 µM | Potency, µM (titrated, usually from 37.8 µM), for the others: at the top dose activity change, negative = inhibition, most hits filed as inhibitors; active = well fitted inhibition curve with a large enough effect; inconclusive = small, poorly fitted or top-dose-only effect, or effect the other way; inactive = flat fitted curve, though single readings scatter; tested in HEK293 cells; about a fifth of its hits are not listed in these tables; further: on the % scale 0 is the no-effect control and ±100 the full control effect; luciferase read-out
NS1 inh: influenza NS1 inhibition. S. cerevisiae slowed by influenza A NS1, growth recovery by OD600. Potency, µM (series often up to 46.1 µM), inactives show at the top dose activity, positive = more growth. 0.4% of 270,000 active; further: actives are rising curves; nearly all actives have a fitted effect of over 50% in size
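Compounds were scored for reversing the slow growth caused by influenza A NS1 in S. cerevisiae, measured by optical density at 600 nm. Assay medium contained 2% galactose at pH 6.0; NS1-free yeast of the same strain were the positive control.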
Cruzain Triton: blocks cruzain activity in presence of Triton detergent | P25779 | purified cruzain, Z-FR-AMC fluorescence, 0.01% Triton | Potency, µM, without a hit: max response, negative = inhibition, most hits filed as inhibitors | 0.43% of 200,000 active; active means well fitted curve in the direction sought with a large enough effect; inconclusive means small, poorly fitted or top-dose-only effect, or another doubt; inactive means no such curve, though single readings can be large; an effect the other way counts as inactive or inconclusive;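 further: plate controls were neutral wells for no effect and buffer without enzyme for full effect; nearly all actives have a fitted effect of over 40% in size; top concentration of the series not given in the record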
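Enzyme 1.5 nM, Z-FR-AMC 2 uM, NaOAc 100 mM pH 5.5, DTT 5 mM, Triton X-100 0.01%; 15 min RT compound preincubation; kinetic ex360/em450, 60 s delta.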
An asterisk follows results filed as active; & = joins results of further samples; [ ] = another dose, or the depositor's remark. Unless noted, the call rests on the fitted dose curve; in most records, active means well fitted rising curve with a large enough effect; inconclusive means small, poorly fitted or top-dose-only effect; inactive means no such curve, though single readings can be large or run the other way. Potency means the concentration at half of the fitted maximal effect.

COCCSc1nnc(NC(=O)C2CCN(C(=O)c3ccco3)CC2)s1 was read as LASV entry inh 6%[46.1 µM], 2A StopGo -8%, RE007 growth inh 10%, SARS PLpro yeast -3%, MARV entry inh 4%[46.1 µM] and NS1 inh -7%.
`COc1ccccc1N1CCN(C(c2cccs2)c2nnnn2C2CCCC2)CC1` (stereo not given) gave LASV entry inh 1%, 2A StopGo -12%, RE007 growth inh 2%, Cruzain noTriton 18%, SARS PLpro yeast 0%, MARV entry inh -29%, NS1 inh -38% and Cruzain Triton -1.6%.
Screening N=C1S/C(=C\c2ccco2)C(=O)N1c1ccc2c(c1)OCO2 returned LASV entry inh -46%[46.1 µM], 2A StopGo 12%, RE007 growth inh -22%, SARS PLpro yeast -1%, MARV entry inh -26% and NS1 inh 2%.
`CC(=O)Cn1ncc(Br)c(Br)c1=O` gave LASV entry inh inconclusive, 2A StopGo inconclusive, RE007 growth inh 19%, SARS PLpro yeast -1%, MARV entry inh inconclusive and NS1 inh -6%.
`Oc1c(C=C2N=c3ccccc3=N2)sc(=S)n1-c1ccccc1` gave LASV entry inh -7%, 2A StopGo -23%, Cruzain noTriton 10µM*, SARS PLpro yeast 13%, MARV entry inh 8%, NS1 inh 20% and Cruzain Triton -3.1%.
CCN(CC)CCCNc1cc(-c2ccccc2)nc(C)n1 was read as LASV entry inh 9%[46.1 µM], 2A StopGo -19%, Cruzain noTriton 2%, MARV entry inh -4%[46.1 µM] and Cruzain Triton 0.0%.
For COc1ccc(S(=O)(=O)N2CCCCCC2)cc1NC(=O)c1ccccc1 the results were LASV entry inh -7%, 2A StopGo -13%, RE007 growth inh -25%, SARS PLpro yeast 5%, MARV entry inh inconclusive and NS1 inh 5%.
For COc1ccccc1C(=O)N1CC(=O)Nc2ccc(C)cc2C1c1ccc(F)cc1 (stereo not given) the results were LASV entry inh 7%[46.1 µM], 2A StopGo -14%, RE007 growth inh 3%, SARS PLpro yeast -1%, MARV entry inh -3%[46.1 µM] and NS1 inh 1%.
`CC1=C(C(=O)NCc2ccccn2)C2(CCC(C)CC2)OC1=O` (stereo not given) gave 2A StopGo -8%, RE007 growth inh 2%, Cruzain noTriton 4%, SARS PLpro yeast 1%, NS1 inh -6% and Cruzain Triton 4.0%.
For COc1ccc(OC)c(NC(=O)C2CCN(S(C)(=O)=O)CC2)c1 the results were LASV entry inh 9%, RE007 growth inh -7%, Cruzain noTriton -8%, SARS PLpro yeast 0%, MARV entry inh 13%, NS1 inh 4%[9.22 µM] and Cruzain Triton 3.5%.
Screening CC(C)=CC(=O)OCC(=O)Nc1ccc(Cl)cn1 returned LASV entry inh -2%, 2A StopGo 14%, RE007 growth inh -25%, Cruzain noTriton 7%, SARS PLpro yeast -19%, MARV entry inh 9%, NS1 inh -22% and Cruzain Triton 3.3%.
For CCCCC(=O)N1CCCC(C)C1 (stereo not given) the results were LASV entry inh -6%, 2A StopGo 6%, RE007 growth inh -2%, SARS PLpro yeast -1%, MARV entry inh 0%[46.1 µM] and NS1 inh 10%.
For Cc1ccc(S(=O)c2ccc(C)cc2)cc1 the results were LASV entry inh 4%, 2A StopGo 7%, RE007 growth inh 19%, Cruzain noTriton -12%, SARS PLpro yeast 6%, MARV entry inh -8%, NS1 inh 5% and Cruzain Triton -1.0%.
Screening CCN(CC)CCOC(=O)C(Cc1cccc2ccccc12)CC1CCCO1 (stereo not given) returned 2A StopGo -23%&-5%, RE007 growth inh -7%, Cruzain noTriton -7%, SARS PLpro yeast 1%, NS1 inh -2% and Cruzain Triton 2.9%.
Cc1ccc2c(CN(C)Cc3cccc(F)c3)cc(=O)oc2c1 was read as 2A StopGo 24%, RE007 growth inh -7%, SARS PLpro yeast 0% and NS1 inh -5%.
`COCCNC(=O)C(=O)NCC(c1ccc2c(c1)OCO2)N1CCN(c2ccc(F)cc2)CC1` (stereo not given) gave 2A StopGo 1%, RE007 growth inh -1%, SARS PLpro yeast 20% and NS1 inh 11%.
`COc1ccc(NC(=O)C(=O)Nc2cccc3ccccc23)c(OC)c1` gave LASV entry inh 5%, 2A StopGo 1%, RE007 growth inh -2%, SARS PLpro yeast -8%, MARV entry inh 11% and NS1 inh 11%.
For COc1cc(Cl)ccc1OCc1cc(C(=O)N(C)C2CCOC2)no1 (stereo not given) the results were 2A StopGo 13%, RE007 growth inh 7%, SARS PLpro yeast -7% and NS1 inh 5%.
Screening O=C(Cn1c(=O)n(Cc2ccc3c(c2)OCO3)c(=O)c2oc3ccccc3c21)Nc1ccccc1F returned LASV entry inh 5%[46.1 µM], 2A StopGo 5%, Cruzain noTriton -15% and Cruzain Triton 0.0%.
For N#Cc1c(SCC(=O)Nc2nc3ccc(Br)cc3s2)sc2c(O)cc(=O)[nH]c12 the results were LASV entry inh 26%[46.1 µM], 2A StopGo 6%, RE007 growth inh -10%, SARS PLpro yeast -5%, MARV entry inh -7%[46.1 µM] and NS1 inh inconclusive.
Screening COc1ccc(S(=O)(=O)N2CCOCC2)cc1NC(=O)c1cc2c(s1)CCCC2 returned LASV entry inh 4%, 2A StopGo 23%, RE007 growth inh 23%, Cruzain noTriton inconclusive, SARS PLpro yeast 8%, MARV entry inh inconclusive, NS1 inh 21% and Cruzain Triton -6.4%.
For CC(=O)Nc1ccc(CN2CCCC(C(=O)c3cccc(C(F)(F)F)c3)C2)cc1 (stereo not given) the results were 2A StopGo -16%, RE007 growth inh -7%, SARS PLpro yeast 0% and NS1 inh -4%.
`Cc1cccc(NC(=O)CN2C(=O)S/C(=C\c3ccc(O)c([N+](=O)[O-])c3)C2=O)c1` gave LASV entry inh 0%[46.1 µM], 2A StopGo -5%, RE007 growth inh 0%, SARS PLpro yeast -3% and MARV entry inh 19%[46.1 µM].
CC(NS(C)(=O)=O)C(c1cccs1)N1CCN(c2ccccc2F)CC1 (stereo not given) was read as LASV entry inh 1%, 2A StopGo -20%, RE007 growth inh -4%, MARV entry inh -15% and NS1 inh -2%.
Cc1ccc(OCC(=O)N(C)CC(=O)Nc2ccccc2Cl)c([N+](=O)[O-])n1 was read as LASV entry inh inconclusive, 2A StopGo -11%, RE007 growth inh 4%, SARS PLpro yeast -2% and MARV entry inh inconclusive.
COc1cccc(NC(=S)NCc2cccs2)c1 was read as LASV entry inh 16%, 2A StopGo 133%[activator], RE007 growth inh -19%, Cruzain noTriton 9%, SARS PLpro yeast -5%, MARV entry inh inconclusive, NS1 inh 8% and Cruzain Triton -5.1%.
For CC1CCCN(C(=O)NC2CC(=O)N(c3ccc4c(c3)OCCO4)C2)C1 (stereo not given) the results were LASV entry inh 22%, 2A StopGo -11%, RE007 growth inh 3%, SARS PLpro yeast 10% and MARV entry inh -13%.
Screening Cc1nn(C(=O)N2CCOCC2)c(C)c1CN1C(=O)c2ccccc2C1=O returned LASV entry inh 10%, 2A StopGo 0%, RE007 growth inh -3% and MARV entry inh 4%.
Screening Cc1ccc(C(=S)N2CCN(Cc3ccccc3)CC2)s1 returned LASV entry inh -12%, 2A StopGo -21%, RE007 growth inh 7%, SARS PLpro yeast -1% and MARV entry inh 1%[46.1 µM].
`O=C(Nc1ccccc1)OC1CCS(=O)(=O)C1` (stereo not given) gave LASV entry inh 1%, 2A StopGo -3%, RE007 growth inh 3%, Cruzain noTriton 3%, SARS PLpro yeast 18%, MARV entry inh 6%, NS1 inh 15% and Cruzain Triton -3.5%.
`CCN(CC)CCCNC(=O)c1oc2ccc3c(c2c1C)C(O)CC(C)(C)O3` (stereo not given) gave 2A StopGo -13%, RE007 growth inh 0%, SARS PLpro yeast 1% and NS1 inh 2%.
CCCP(=O)(CCC)CCP(=O)(c1ccccc1)c1ccccc1 was read as LASV entry inh 1%, 2A StopGo -1%, RE007 growth inh -12%, Cruzain noTriton -2%, SARS PLpro yeast -8%, MARV entry inh 0%, NS1 inh -4% and Cruzain Triton 1.6%.
COc1ccc(CC(=O)OCC(=O)N2CCCC(C)C2)cc1 (stereo not given) was read as LASV entry inh 7%[46.1 µM], 2A StopGo 10%, RE007 growth inh 10%, SARS PLpro yeast 2%, MARV entry inh 3%[46.1 µM] and NS1 inh -5%.
For Cc1ccc(O)c(C(=O)c2cnc3c(c2)CN(C)C(=O)N3)c1 the results were LASV entry inh -18%, 2A StopGo -5%, RE007 growth inh -1%, Cruzain noTriton -12%, SARS PLpro yeast -1%, MARV entry inh inconclusive, NS1 inh 10% and Cruzain Triton -3.8%.
CSc1nc2c(ccc3ccccc32)o1 was read as LASV entry inh 11%, 2A StopGo 53%[activator], RE007 growth inh -18%, Cruzain noTriton -19%, SARS PLpro yeast -25%, MARV entry inh -2%, NS1 inh -7% and Cruzain Triton -5.2%.
`Cc1cc2nsnc2c(S(=O)(=O)N2CCN(C)CC2)c1C` gave LASV entry inh -16%[46.1 µM], 2A StopGo 22%, RE007 growth inh 11%, SARS PLpro yeast 6%, MARV entry inh 2%[46.1 µM] and NS1 inh -6%.
`CCOC(=O)c1[nH]c(C)c(C(=O)OCC(=O)NC2CCS(=O)(=O)C2)c1C` (stereo not given) gave 2A StopGo -18%, RE007 growth inh -15%, SARS PLpro yeast 0% and NS1 inh -1%.
`Cc1ccc(NC(=O)N2CCN(C(=O)C3CCCO3)CC2)cc1` (stereo not given) gave 2A StopGo -10%, RE007 growth inh 5%, SARS PLpro yeast 1% and NS1 inh 5%.
For Cc1cc(C(F)(F)F)nn1CC(=O)Nc1ccc(Br)c2cccnc12 the results were LASV entry inh 25%, 2A StopGo 0%, RE007 growth inh -26%, Cruzain noTriton -14%, SARS PLpro yeast 8%, MARV entry inh -13%, NS1 inh 13% and Cruzain Triton -9.1%.
`Cc1ccccc1Cc1c(C)nc2nc(SCC(=O)NCCc3ccc(Cl)cc3)nn2c1C` gave LASV entry inh inconclusive, 2A StopGo inconclusive, Cruzain noTriton 1%, MARV entry inh -2%[46.1 µM] and Cruzain Triton -1.1%.
